miR-21 reporter – raises the signal of a miR-21 reporter; AID 2288; Potency, µM (titrated, usually from 38.3 µM), inactives show top-dose reporter change, positive = more light; HeLa miR-21 FLuc reporter, luciferase, 48 h; 340,000 tested, under 10 active; active = well fitted rising curve with a large enough effect; inconclusive = small, poorly fitted or top-dose-only effect; inactive = no such curve, though single readings can be large or run the other way;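 note: % of control where 0% means no effect; miR-21 action dims this reporter so a rising signal means less miR-21 action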
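Luminescence from a firefly luciferase reporter carrying a miR-21 binding site downstream, stably expressed under a CMV promoter in HeLa cells that make miR-21 endogenously, reports miRNA modulation after 48 h compound exposure up to approximately 40uM final.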
GLA inh pH 4.5 – inhibitors of human alpha-galactosidase A at pH 4.5; activity change, negative = inhibition, % at 105 µM; P06280; AID 1467; purified enzyme, 4-MU-alpha-Gal fluorescence, pH 4.5; 230,000 tested, under 10 active; inconclusive = small, poorly fitted or top-dose-only inhibition, or a rising curve; inactive = flat fitted curve, though single readings scatter; no compound was filed as active;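 note: 0% = full activity with enzyme and -100% = basal without enzyme; dose as in the result columns while the protocol names 77 µM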
Target sequence (P06280 whole entry, looked up): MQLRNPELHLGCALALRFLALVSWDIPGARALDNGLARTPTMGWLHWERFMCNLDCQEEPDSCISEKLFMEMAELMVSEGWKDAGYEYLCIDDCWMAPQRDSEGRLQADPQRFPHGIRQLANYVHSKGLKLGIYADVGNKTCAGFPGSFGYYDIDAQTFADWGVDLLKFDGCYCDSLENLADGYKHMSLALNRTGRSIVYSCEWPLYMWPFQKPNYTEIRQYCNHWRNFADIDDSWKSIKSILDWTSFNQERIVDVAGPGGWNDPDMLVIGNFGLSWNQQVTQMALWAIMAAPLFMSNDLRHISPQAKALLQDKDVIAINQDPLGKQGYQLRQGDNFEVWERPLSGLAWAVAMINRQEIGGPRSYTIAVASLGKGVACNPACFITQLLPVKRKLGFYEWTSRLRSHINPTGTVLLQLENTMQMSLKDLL
Rango complex inh – Rango-importin beta binding inhibition | Rango CFP/YFP FRET sensor + importin beta, 45 min | Potency, µM (series often up to 92.2 µM), inactives show at the top dose inhibition of complex formation | 340,000 compounds, 0.031% hits | AID 540263; active = rising FRET ratio curve, often small or poorly fitted; inconclusive = mostly compound fluorescence or quenching in the first reads; inactive = flat curves in all reads;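 note: potency is the fitted concentration of half-maximal effect; 0% = DMSO wells and 100% = buffer wells lacking importin beta; nearly all actives have a fitted effect of over 15% in size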
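FRET biosensor (snurportin 1 IBB flanked by EYFP and cerulean), 50 nM, with compound 5 min, then 0.125 microM importin beta in PBS, 1 mM DTT, 0.02% Tween-20, 0.1% BSA. CFP/YFP ratio read after 45 min at room temperature; pre-read flags interference.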
Rango dissoc inh – inhibition of RanGTP-driven Rango-importin beta dissociation | O95149+P62826 | Biochemical FRET Rango-importin beta, RanGTP-induced dissociation | Potency, µM (highest dose often 46.1 µM), without a hit: at the top dose activity change, negative = inhibition | 340,000 compounds, 0.071% hits; active means falling FRET ratio curve, often poorly fitted, with flat reads before Ran was added; inconclusive means other falling curves, or compound fluorescence or quenching; inactive means flat or rising ratio curve;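 note: potency is the fitted concentration of half-maximal effect; % of control where 0% means no effect; nearly all actives have a fitted effect of over 45% in size; -100% = wells without RanGTP and RCC1; the record marks most hits as doubtful in a second field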
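FRET read at 45 min, room temperature: inhibitors block the CFP/YFP signal rise when RanGTP (0.6 uM Ran, 2 mM GTP, 0.2 uM RCC1) frees Rango (0.1 uM) from importin beta (0.25 uM). Pre-read after 5 min compound exposure flags interference.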
Starred values were filed as active, the others as inactive; ? = inconclusive; / = no result given; [ ] = another dose, or the depositor's remark. This is a subset (hit frequency here may not be typical).

SMILES	miR-21 reporter	GLA inh pH 4.5	Rango complex inh	Rango dissoc inh
COc1cc2[nH]c(C(=O)N3CCC(Cc4ccccc4)CC3)cc2c(OC)c1OC	2%	/	-0.3%	12%
COc1ccc(NC(=O)c2ccc(OC(=S)N(C)c3ccc(OC)cc3)cc2)cc1	-7%	4	0.1%	1%
Cc1cc(=O)oc2cc(O)cc(O)c12	/	/	?	-24%
CC(=O)c1cccc(NC(=S)NC(=O)c2ccc(C)cc2Cl)c1	-41%	-8	9.1%	-14%
CCCCOC(=O)c1ccc(NC(=O)CSc2nnnn2C)cc1	-18%	5	-1.4%	-5%
COc1ccc(NC(=O)CCCCCN2C(=O)CCC2=O)cc1Cl	-7%	2	0.5%	1%
O=C(Nc1cccc(-c2nnc(-c3ccco3)o2)c1)c1ccccc1	12%	0	1.6%	-10%
O=C(Nc1ccc(F)c(F)c1)c1cccnc1	0%	10	0.5%	4%
CC(C)Cn1cc(C(=O)N2CCN(c3ccccn3)CC2)c2c3ccccc3n(C)c2c1=O	11%	-4	0.6%	-17%
Cc1cc(C)c(C)c(OC(=O)c2sc(Cl)nc2C)c1	1%	2	-3.1%	7%
CS(=O)(=O)n1nc(-c2ccccc2)nc1NCc1ccco1	-47%	-20	-0.5%	2%
CCCCN(C)S(=O)(=O)c1ccc(C(=O)Nc2nnc(CSC)o2)cc1	25%	4	4.1%	-6%
CN(C)S(=O)(=O)c1ccc(Cl)c(NC(=O)COC(=O)C2CCCO2)c1 (centres undefined)	0%	5	-1.8%	-16%
CCSc1nnc(-c2ccc(S(=O)(=O)N3CCOCC3)cc2)n1C	9%	/	3.3%	-5%
Cc1ccc(C(=O)Nc2cccc(NC(=O)CN3CCCCC3)c2)cc1	-16%	/	1.1%	-3%
C/C=C/c1ccc(OCCOc2cccc3cccnc23)c(OC)c1	-42%	-1	0.5%	17%
O=C(Cc1ccc(Cl)cc1)Nc1cccnc1	-2%	/	0.6%	26%
Cc1nn(C)c(C(=O)Nc2cccc(CN3CCOCC3)c2)c1Br	-2%	-2	-5.6%	-18%
Cc1noc(C)c1C(=O)OCC(=O)NCc1ccc(Cl)cc1	/	/	-3.8%	-9%
Cc1cc([N+](=O)[O-])nn1CCCC(=O)Nc1cc(Cl)ccc1Cl	-4%	-9	-4.1%	-7%
CCN1CCN(Cc2ccc(OCc3ccccc3)c(OC)c2)CC1	-37%	6	1.3%	25%
CCOc1ccc(CCN2C(=S)N([C@@H](CC(C)C)CN3CCCC3CN3C(=S)NC[C@@H]3Cc3ccc(O)cc3)C[C@@H]2Cc2ccc(O)cc2)cc1 (some centres undefined)	/	/	1.1%	?
CCOC(=O)N1CCN(C(c2cccc(OC)c2)c2sc3nc(C)nn3c2O)CC1 (centres undefined)	-3%	-28	0.0%	13%
CN(C)C(C)(C)C#CC(O)(c1ccccc1)c1ccccc1	-4%	1	-0.7%	-21%
COc1ccc(/C=C/c2nc(C)c(-c3ccccc3)c(=O)[nH]2)cc1OC	-3%	9	0.6%	-5%
Clc1cc2nc[nH]c2cc1Cl	-7%	-6	0.4%	5%
O=C(CN1c2cccc3cccc(c23)S1(=O)=O)Nc1ccccc1	-10%	-2	0.1%	-6%
Cc1nc(N2CCN(C(=O)c3ccco3)CC2)[nH]c(=O)c1C	-1%	/	-2.3%	-6%
Cc1ccc(-n2c(-c3ccc(Cl)cc3)n[nH]c2=S)c(C)c1	1%	/	-3.3%	-10%
N#Cc1ncc(C(F)(F)F)cc1Oc1cccnc1	-2%	-16	3.2%	1%
CN(C)CCCNC(=S)Nc1ccc(Oc2ccccc2)cc1	-7%	-4[21.1 µM]	-1.9%	4%
CCN(c1ccccc1)S(=O)(=O)c1ccc(OC)c(NC(=O)c2ccccc2OC)c1	/	/	-0.5%	-6%
CC(=O)OC[C@H]1O[C@H](C/C=N/O[C@@H](C)c2cn([C@H](CO)Cc3ccccc3)nn2)C=C[C@@H]1OC(C)=O	-4%	-4	/	/
COc1ccc(NC(=O)c2sc3nc(N4CCOCC4)c4c(c3c2N)CC(C)(C)OC4)cc1	-2%	/	6.7%	-16%
CN1CCN(c2ccc(NC(=O)c3ccc4c(c3)[nH]c(=O)n4Cc3ccc(F)cc3)cc2)CC1	0%	2	-1.1%	6%
CS(=O)(=O)N(Cc1ccccc1)c1ccc(C(=O)NCCSCc2ccco2)cc1	1%	-2	-8.3%	-7%
CCOc1ccc(OCC)c(NC(=O)CCCN2C(=O)c3cccnc3C2=O)c1	0%	7	0.8%	-17%
Cc1ccccc1NC(=O)Cn1c(CCC(=O)O)ccc1-c1cccs1	1%	5	-1.1%	-7%
Cc1cc(C)n(-c2ccc3nnc(C)n3n2)n1	6%	-5	-0.2%	1%
NC(=O)CC(NC(=O)Cc1ccc(Cl)cc1)c1ccc(N2CCN(c3ccccn3)CC2)c([N+](=O)[O-])c1 (centres undefined)	4%	/	0.9%	12%
CC(C)OP(=O)(OC(C)C)C1(O)C(=O)Nc2ccccc21 (centres undefined)	-2%	1	0.3%	1%
Cc1c(N/C=C/C(=O)c2ccc(Cl)cc2)c(=O)n(-c2ccccc2)n1C	-15%	-4	?	12%
CCCn1c(SC2C(=O)CC(C)(C)CC2=O)nc2c1c(=O)n(C)c(=O)n2C	2%	5	-3.7%	2%
COc1ccc(F)cc1CN1CCN(C(=O)CCC(=O)Nc2nnc(C3CCCCC3)s2)CC1	-2%	/	-1.0%	-6%
COc1ccc2[nH]c(C)c(CCN3C(=O)C4C5C=CC(C5)C4C3=O)c2c1 (centres undefined)	-8%	1	2.6%	-16%
COc1ccc(O)c(/C=N/NC(=O)c2ccc(OCc3cccc(Br)c3)cc2)c1	21%	-18	3.1%	4%
CCOc1cc(N2CCOCC2)c(OCC)cc1NC(=O)COC(=O)CCOc1cc(C)ccc1C	/	/	-3.9%	-9%
Cc1ccc2c(c1)-c1c(cnn1CC(=O)Nc1ccccc1N1CCN(C)CC1)CO2	-9%	2	0.8%	13%
C/C=C/c1ccc(OC(C)=O)c(OC)c1	-5%	4	0.2%	-7%
CCN(CC)S(=O)(=O)c1ccc(C)c(NC(=S)Nc2cccc(S(=O)(=O)N3CCCCCC3)c2)c1	24%	1	-1.5%	-2%
Cc1ccc(C)c(/C=C(\C(=O)O)c2ccc(S(=O)(=O)N3CCCCC3)s2)c1	-11%	-9	-2.0%	?
COc1cccc(C(=O)CSc2nnnn2C)c1	-9%	11	-2.2%	7%
C=CCN(CC=C)S(=O)(=O)c1ccc(C(=O)Nc2nnc(CSC)o2)cc1	?	0	-2.9%	1%
CN(C1CCCCC1)S(=O)(=O)c1ccc2[nH]c(=O)oc2c1	-1%	0	0.2%	1%
O=C(CCCn1c(SCC(=O)c2ccc(F)cc2)nc2ccccc2c1=O)NCc1ccccc1	1%	8	2.5%	1%
O=C(CN1CCCCCC1)Nc1ccc([N+](=O)[O-])cc1Cl	-3%	/	3.2%	9%
C/C(=N\NC(=O)c1nc2ccccn2c1C)c1ccc2c(c1)OCO2	-22%	-6	0.3%	-1%
COC(=O)C(OC(=O)c1ccc(OC)cc1)C(=O)OC	-3%	-1	-4.8%	3%
Nc1cccc(NC(=O)c2ccco2)c1	-15%	/	-5.5%	-8%
COc1cccc(-c2nn(C)c3sc(C(=O)Nc4ccc5c(c4)OCCO5)cc23)c1	-9%	-14	-3.5%	-9%

Next section
SMILES	miR-21 reporter	GLA inh pH 4.5	Rango complex inh	Rango dissoc inh
Cc1noc(C)c1CN1C(=O)NC(Cc2ccccc2)(Cc2ccccc2)C1=O	1%	2	-1.4%	18%
CCc1ccc(OCC(=O)NNCC(=O)Nc2ccc(OC)cc2)cc1	/	/	4.0%	31%
COc1cc2c(cc1NC(=O)CSc1nnc(Cc3cccs3)n1C)oc1ccccc12	-5%	0	2.0%	1%
Cc1ccc(-c2nc3[nH]c(=O)cc(NC(=O)c4cccs4)n3n2)cc1	-2%	-1	-2.6%	-8%
CCOc1ccc(CN(Cc2ccco2)S(=O)(=O)c2ccc(-n3cnnn3)c(OC)c2)cc1	9%	0	-2.7%	5%
CCCc1cc(-c2n[nH]c(=S)n2-c2cccc(C)c2)cs1	-12%	1	0.8%	-12%
O=C(/C=C/c1ccco1)NC(=S)Nc1ccccc1N1CCOCC1	0%	-2	2.5%	-8%
CCOc1ccc(C(=O)NC(=S)Nc2cc(C)ccn2)cc1[N+](=O)[O-]	-2%	-3	1.0%	4%
Cc1cccnc1NC(=O)CN1C(=O)NC(C)(c2ccc3ccccc3c2)C1=O (centres undefined)	/	/	0.0%	-14%
COc1ccc(NS(=O)(=O)c2cc(NC(=O)CCSc3ccccc3)ccc2OC)cc1	-11%	3	7.2%	-6%
CCC(Oc1ccc(Br)cc1)C(=O)N1CCN(c2ncccn2)CC1 (centres undefined)	3%	/	0.7%	25%
O=C1Nc2ccc(Cl)cc2C12Nc1ccccc1-c1nnc(SCc3ccccc3F)nc1O2 (centres undefined)	-15%	-1	-0.3%	-6%
CCC(C)NC(=O)C1(C)CCC(=O)N1Cc1ccccc1OC (centres undefined)	1%	-11	-0.1%	9%
O=c1[nH]c2cc3c(cc2cc1C(c1nnnn1C1CCCCC1)N1CCSCC1)OCCO3 (centres undefined)	-13%	6	?	?
O=C(CN(CC1CCCO1)C(=O)CNS(=O)(=O)c1ccc(F)cc1)NC1CCCC1 (centres undefined)	-3%	/	?	-4%
CC(C)(C)OC(=O)NCCNC(=O)c1cccs1	-4%	5	0.8%	-16%
COc1cc(/C=N/NC(N)=O)c(Br)cc1OCC(=O)Nc1ccccc1C	-8%	-2	3.6%	0%
O=C(N/N=C/c1ccco1)c1ccn[nH]1	-37%	-1	0.7%	-6%
COc1cccc(N2CCN(C(=S)Nc3ccc(F)cc3)CC2)c1	3%	/	2.0%	8%
Cc1ccccc1-n1ncc2c1CC(C)(C)CC2NC(=O)CCC(F)(F)F (centres undefined)	0%	/	-0.2%	27%
COc1ccc(OC)c(NC(=O)CSc2nncc(=O)n2N)c1	-1%	/	3.6%	2%
COc1ccc(CCN=C(N)NS(=O)(=O)c2ccc(C)c(C)c2)cc1OC	-19%	/	-0.3%	-7%
CNc1snc(C)c1C(=O)OC(C)C(=O)c1ccc(F)cc1 (centres undefined)	/	/	8.7%	4%
COc1ccc(CNc2cc(C)ccc2C)c(OC)c1OC	-3%	0	-1.5%	-7%
CCNc1nc(SCCOc2ccccc2)nc(N(C)C)n1	-13%	-2	-5.6%	1%
CCOC(=O)Cn1c(=NC(=O)c2sc3ccccc3c2Cl)sc2cc(S(N)(=O)=O)ccc21	-1%	11	-0.3%	-3%
O=C(Nc1ccc(Oc2cccnc2)nc1)c1ccc(C(F)(F)F)cc1	29%	-16	0.2%	0%
CC(=O)N(CCC(c1ccccc1)c1ccco1)Cc1cccs1 (centres undefined)	22%	9	2.2%	-11%
CC(C)(C)OC(=O)N[C@@H](CC(=O)OCc1ccccc1)C(=O)O	2%	2[21.1 µM]	-0.9%	-15%
CCCn1c(=O)c2[nH]c(-c3ccc(S(=O)(=O)O)cc3)nc2n(CCC)c1=O	/	16	4.1%	0%
CCCNC(=O)NC(=O)COC(=O)/C=C/c1cc(Br)ccc1F	-1%	0	-2.7%	5%
COCCNCc1ccccc1	0%	-2	0.3%	1%

Screening data from PubChem BioAssay.
